# CBX7 AlphaScr – CBX7 chromodomain binding inhibitors, primary screen, biochemical, AlphaScreen | Chromobox protein homolog 7 (Homo sapiens), O95931 | AlphaScreen His6-CBX7 / biotin-H3K27me3 peptide binding; stronger effect = lower value | normalised signal (fraction of DMSO) (test concentration not listed) | actives 1.1% (n = 66,000) | AID 1224903, 2016; in the data active means normalised signal below about 0.5;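 further: 100 nL library stock added to about 20 µL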
# Target sequence (O95931 whole entry, looked up): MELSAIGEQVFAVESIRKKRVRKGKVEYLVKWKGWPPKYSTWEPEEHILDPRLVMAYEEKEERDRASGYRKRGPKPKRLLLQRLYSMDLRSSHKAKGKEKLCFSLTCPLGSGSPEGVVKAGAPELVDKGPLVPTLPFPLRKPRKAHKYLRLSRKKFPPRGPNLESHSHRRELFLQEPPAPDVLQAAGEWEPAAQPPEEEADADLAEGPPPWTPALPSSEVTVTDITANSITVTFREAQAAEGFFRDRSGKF
# CBX7 AlphaScr z-score – second read-out of CBX7 AlphaScr, no call of its own (marks repeat the call); z-score; measured here: z-score of CBX7 signal; some inactives read as strong as hits; reference of the scale not given here;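 same signal on another scale; lower means less binding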
# An asterisk follows results filed as active. A portion of the library. The share of hits here may be higher or lower than overall.
# The line under a structure holds: CBX7 AlphaScr	CBX7 AlphaScr z-score
> O=C(Nc1cccnc1)c1ccc(OCc2ccccc2Cl)cc1
    1	0.34
> O=C(NCc1ccc2c(c1)OCO2)c1ccc2c(c1)NC(=O)c1ccccc1S2
    1	2
> CCn1cc(C(=O)O)c(=O)c2cc(F)c(N(C)CCc3ccc(OC)c(OC)c3)cc21
    0.59	-8.2
> CC(C)c1nnc(NC(=O)CSc2nc3ccccc3[nH]2)s1
    1.2	3.9
> COc1ccc(NC(=O)c2cnc(N3CCN(c4ncccn4)CC3)c3ccccc23)cc1OC
    0.8	-1.3
> CN(C)S(=O)(=O)c1ccc(C(=O)N2CC(=O)Nc3ccc(F)cc3C2c2ccccc2)cc1 (stereo not drawn)
    0.92	-0.16
> Cc1ccc(-n2c3c(cc(C(=O)Nc4cccc(Cl)c4)c2=O)C(=O)CCC3)cc1
    0.97	-1.1
> CC1CCCC(NC(=O)C2CCN(c3nnc(-n4cccc4)s3)CC2)C1C (stereo not drawn)
    1.2	1.8
> Clc1ccc(-c2nc3ccccn3c2Nc2ccc3c(c2)OCO3)cc1
    0.7	-11
> O=C(NCc1nc2ccccc2n1Cc1c(F)cccc1Cl)c1ccc(F)cc1
    0.9	-1.1
> Cc1[nH]c2c(Cl)cccc2c(=O)c1CN1CCCCC1
    1.1	0.98
> CCOC(=O)c1[nH]c2c(c1-c1ccccc1)C(=O)CC(c1ccc(OCC)cc1)C2 (stereo not drawn)
    0.97	-0.19
> CC1CC(C)CN(c2oc(-c3ccc(F)cc3)nc2C#N)C1 (stereo not drawn)
    1.1	0.66
> Cc1ccc(-n2ncc3c(NCc4ccccc4Cl)ncnc32)c(C)c1
    1	0.11
> O=C(c1cc(-c2ccc3c(c2)OCO3)on1)N1CCOCC1
    0.96	-0.56
> O=S(=O)(c1cccc2cccnc12)N1CCN(c2ccccc2F)CC1
    1.1	1.9
> O=C(Nc1ccc2oc(-c3cccc(F)c3)nc2c1)c1ccccc1F
    1	0.77
> CC1CCCN(C(=O)c2ccc(CNc3c(N4CCCCC4)c(=O)c3=O)cc2)C1 (stereo not drawn)
    1.4	0.83
> COc1ccc(CNC(=O)c2cc3n(n2)C(C(F)(F)F)CC(c2ccc(OC)cc2)N3)cc1 (stereo not drawn)
    1.2	3.9
> CCN(C(=O)c1ccc2c(=O)n3c(nc2c1)CCCCC3)c1cc(Cl)ccc1OC
    1	0.63
> Cc1ccc(NC(=O)c2cc(S(=O)(=O)N3CCCCC3)ccc2F)cc1F
    1	0.058
> O=C(CCc1nc(-c2ccccc2F)no1)NCCCN1CCN(c2ccc(F)cc2)CC1
    0.77	-3.5
> CCCc1oc2cc(O)c(CC)cc2c(=O)c1-c1ccc2c(c1)OCCCO2
    0.68	-2.5
> CCOC(=O)c1ccc(NC(=O)c2cnc3sccn3c2=O)cc1
    1	0.72
> O=C1CC(c2ccc(F)cc2)Cc2nc(NCc3ccccc3)ncc21 (stereo not drawn)
    0.87	-1.9
> Cc1ccc(Cn2c(=O)c3cccnc3n(Cc3ccc(C)cc3)c2=O)cc1
    1	0.21
> COc1ccc(CNC(=O)CCN2C(=O)c3ccccc3C2=O)cc1
    1.1	1.3
> CCc1ccc(-c2csc(Nc3cccc(C)n3)n2)cc1
    0.8	-2.4
> COc1ccc(C)cc1NS(=O)(=O)c1ccc2[nH]c(=O)c(=O)[nH]c2c1
    0.88	-0.16
> O=C(C1CC1)N1CCc2cc(S(=O)(=O)N3CCC(Cc4ccccc4)CC3)ccc21
    0.96	-1.4
> CC(C)OCCCN1C(=O)Cn2cccc2C1C(=O)NC1CCCCC1C (stereo not drawn)
    0.89	-2.1
> Cc1cc(N2CCN(Cc3ccccc3)CC2)n2nc(C)c(-c3ccccc3)c2n1
    1.2	5.9
> Cc1ccc(-n2c(SCc3ccccc3)nnc2-c2cccnc2)cc1Cl
    0.94	-1.8
> O=C(NCc1cccnc1)C1CCC(=O)N1CCc1ccccc1 (stereo not drawn)
    1	0.33
> Cc1ccc(-n2ncc(C(=O)Nc3ccccc3C)c2C2CCN(C(=O)OC(C)(C)C)CC2)cc1C
    0.9	-4
> CCN(CC)S(=O)(=O)c1ccc2c(c1)N(CC(=O)NCCN(CC(C)C)CC(C)C)C(=O)CO2
    1.1	1.6
> Cc1cc(C)cc(OC(C)C(=O)Nc2c(C(=O)c3ccc(Br)cc3)oc3ccccc23)c1 (stereo not drawn)
    0.8	-0.71
> CCOc1ccc(CCNC(=O)C2CCCN(S(=O)(=O)c3c(C)n[nH]c3C)C2)cc1OCC (stereo not drawn)
    1	0.18
> COc1cccc(-c2nc(-c3cccnc3)no2)c1
    1.1	0.78
> COc1ccc(CNC(=O)CN2C(=O)C(C)=C(c3ccc(C)cc3)S2(=O)=O)cc1
    1.1	2.3
> COc1ccc(CCNC(=O)c2nc(-c3ccc(Cl)cc3)oc2C)cc1OC
    1.1	1.3
> O=C(Nc1ccc(Cl)c(-c2nc3ncccc3o2)c1)c1cccc(F)c1
    1	0.62
> COc1ccc(NC(=O)COc2cc(=O)n(C)c3ccccc23)cc1Cl
    1	0.46
> Cc1ccccc1CN1CCN(CC(=O)N2CCOCC2)C1=O
    0.99	-0.28
> Oc1ccc(C2(c3cccc(Cl)c3)CCCCC2)cc1
    0.96	-1.3
> COc1ccc(CCNC(=O)C2c3ccccc3C(=O)N2Cc2ccc(C)cc2)cc1OC (stereo not drawn)
    0.89	-1.2
> O=c1[nH]c2ccc(S(=O)(=O)N3CCC(O)(c4cccc(C(F)(F)F)c4)CC3)cc2o1
    0.88	-2
> COc1ccc(-c2noc(-c3ccc(C)c(Cl)c3)n2)cc1
    1.1	1.5
> Cc1ccc(CN2C(=O)c3ccccc3Sc3ccc(C(=O)NCCC(C)C)cc32)cc1
    0.94	-0.56
> Cc1cc2nc(C)n(CCCNC(=O)Nc3ccc(F)cc3)c2cc1C
    0.98	-0.67
> COc1ccc(NC(=O)C2CCN(S(=O)(=O)c3cccs3)CC2)cc1Cl
    0.98	-0.35
> COc1ccc(C2CC(=O)C3=C(C2)Nc2ccccc2NC3c2ccncc2)cc1 (stereo not drawn)
    1.1	1.1
> CCCCc1ccc(NC(=O)C(C)N2C(=O)c3ccccc3C2=O)cc1 (stereo not drawn)
    0.99	-0.51
> CCC(C)NC(=O)c1cc2nc(-c3ccc(C)cc3)cc(C(F)(F)F)n2n1 (stereo not drawn)
    1	-0.083
> CC1CCN(c2nc3ccc(C(=O)N4CCCC4)cc3s2)CC1
    1.1	0.77
> Cc1cc(N2CCCCC2)nc2ccc(NC(=O)CCC3CCCC3)cc12
    1.2	5.9
> Cc1ccc(CNC(=O)CCCN2C(=O)CSc3ncccc32)cc1
    0.98	-0.039
> COc1ccc(CNC(=O)CN2C(=O)CSc3ccc(S(=O)(=O)N4CCOCC4)cc32)cc1
    1.1	1.9
> COc1cc(C)c(S(=O)(=O)NCCc2c(C)[nH]c3ccc(OC(F)(F)F)cc23)cc1C
    0.64	-0.35
> Cc1cccc2c1-c1sc(C(=O)NCc3ccc(F)cc3)cc1CO2
    1.1	2.6

# The listing continues.
smiles	CBX7 AlphaScr	CBX7 AlphaScr z-score
COc1ccc(OC)c(NC(=O)CSc2nccn2-c2ccc(F)cc2)c1	0.48*	-1.8*
O=C(CN1CCN(Cc2ccc(F)cc2Cl)C1=O)NCC1CCCO1 (stereo not drawn)	1.1	1
Cc1ccc(-c2noc(CCC(=O)N3CCN(Cc4ccccc4)CC3)n2)cc1	0.9	-0.14
CS(=O)(=O)CC[C@@H](C(=O)NCc1ccc(F)cc1)N1Cc2ccccc2C1=O	1	0.12
O=C(CN1C(=O)c2ccccc2C1=O)Nc1nc(-c2ccc3c(c2)OCO3)cs1	1.1	1.3
CCCCNC(=O)c1sc2ncn(CC(=O)N3CCCCC3C)c(=O)c2c1C (stereo not drawn)	1	0.18
COc1ccccc1NC(=O)c1c(NCc2cccnc2)sc2c1CCC(C)C2 (stereo not drawn)	0.51	-6.8
CCCCCOc1ccc(C2(c3ccccc3)NC(=O)NC2=O)cc1 (stereo not drawn)	1.2	2.5
CCCCNS(=O)(=O)c1ccc2nc(-c3cccnc3)cc(C(=O)NCCCOC)c2c1	1.1	2.5
CC(C)NC(=O)c1cnn(-c2ccccc2)c1-n1cccc1	1	1.8
C=CCn1c(=O)c(C(=O)Nc2nc(-c3ccccc3)cs2)c(O)c2ccccc21	1.1	1.8
CCn1c(C(=O)N2CCC(C(=O)N3CCN(c4cccc(C)c4)C(C)C3)CC2)cc2sccc21 (stereo not drawn)	0.44*	-2.4*
O=C(NCCOc1ccccc1)c1cc(-c2ccccc2)nc2ccc(Br)cc12	1	0.57
COc1ccc(-c2cc(C(=O)NCCCn3ccnc3)c3ccccc3n2)c(OC)c1	0.83	-4.9
COc1ccc(-c2nc3ccccc3o2)cc1NC(=O)COc1ccc(C)cc1C	1	0.035
CC(C)OCCCNC(=O)CN1C(=O)COc2ccc(S(=O)(=O)N3CCCC3)cc21	1	0.42
CC(=O)N1c2ccc(S(=O)(=O)NCCN(C)Cc3ccccc3)cc2CC1C (stereo not drawn)	1.1	2.3
COC(=O)Cn1nc(-c2ccccc2)c2cc(Cl)ccc21	1	1.2
O=C(CN1C(=O)COc2ccc(S(=O)(=O)N3CCCC3)cc21)N1CCCC1	1.2	5.6
CN1CCN(CCNC(=O)Nc2ccccc2C(F)(F)F)CC1	1.1	0.15
Cc1ccc(CC2C(=O)N(c3ccc(C(=O)O)cc3)C(=O)C2C)cc1 (stereo not drawn)	1.1	0.9
COC(=O)c1nnn(-c2nonc2N)c1CSc1ncccn1	0.89	-1.7
CCc1ccccc1NC(=O)CSCc1cnn(-c2ccccc2)c1-n1cccc1	0.99	-0.4
O=C1CC(c2cccc(Br)c2)c2cc3c(cc2N1)OCO3 (stereo not drawn)	0.93	-2.6
O=C(NCc1ccc2c(c1)OCO2)c1cnc2sccn2c1=O	0.96	-0.95
CC1CN(c2nc(-c3ccc(C(C)(C)C)cc3)nc3ccccc23)CC(C)O1 (stereo not drawn)	1.3	2.7
O=C(Nc1ccc(Oc2ccccc2)cc1)c1cn(-c2ccc(F)cc2F)c(=O)c2ccccc12	0.95	-1.7
CCCC1=Nc2cc(C(=O)N3CCN(c4cc(C)ccc4C)CC3)ccc2Sc2ccccc21	0.65	-5.1
Cc1cc(C)cc(-n2cc(-c3ccc4c(c3)OCO4)[nH]c2=O)c1	0.91	-2.2
COc1ccc(NC(=O)CNC(=O)c2cn(-c3ccccc3OC)c(=O)c3ccccc23)cc1OC	1.1	1.2

# Three compounds drawn at random from the list so far:
smiles	CBX7 AlphaScr	CBX7 AlphaScr z-score
O=C1CC(c2cccc(Br)c2)c2cc3c(cc2N1)OCO3 (stereo not drawn)	0.93	-2.6
O=C(NCc1ccc2c(c1)OCO2)c1cnc2sccn2c1=O	0.96	-0.95
COC(=O)Cn1nc(-c2ccccc2)c2cc(Cl)ccc21	1	1.2

# As a working copy, some entries already given:
smiles	CBX7 AlphaScr	CBX7 AlphaScr z-score
CCc1ccccc1NC(=O)CSCc1cnn(-c2ccccc2)c1-n1cccc1	0.99	-0.4
O=C1CC(c2cccc(Br)c2)c2cc3c(cc2N1)OCO3 (stereo not drawn)	0.93	-2.6
O=C(NCc1ccc2c(c1)OCO2)c1cnc2sccn2c1=O	0.96	-0.95
CC1CN(c2nc(-c3ccc(C(C)(C)C)cc3)nc3ccccc23)CC(C)O1 (stereo not drawn)	1.3	2.7
O=C(Nc1ccc(Oc2ccccc2)cc1)c1cn(-c2ccc(F)cc2F)c(=O)c2ccccc12	0.95	-1.7

# Full records as entered above.
# Shown for O=C(Nc1ccc2oc(-c3cccc(F)c3)nc2c1)c1ccccc1F = CBX7 AlphaScr: 1; CBX7 AlphaScr z-score: 0.77
# Shown for O=C(NCc1cccnc1)C1CCC(=O)N1CCc1ccccc1 (stereo not drawn) = CBX7 AlphaScr: 1; CBX7 AlphaScr z-score: 0.33

# Continuation:
smiles	CBX7 AlphaScr	CBX7 AlphaScr z-score
COc1ccc(NC(=O)CC2OCCN(C3CCCCC3)C2=O)cc1 (stereo not drawn)	0.97	-0.67
CCOCCCNC(=O)c1ccc2c(c1)N(Cc1cc(C)ccc1C)C(=O)CS2	0.96	-1.6
O=C(Nc1ccc(C(F)(F)F)cc1)c1cnc(N2CCN(c3ccccn3)CC2)c2ccccc12	1	0.17
C=C(C)Cn1c(CNC(=O)c2ccc(Cl)cc2)nc2ccccc21	1.1	1.5
COc1ccc(C2(CNC(=O)CC(c3ccccc3)c3ccccc3O)CCCC2)cc1OC (stereo not drawn)	0.6	-7.9
COc1c(Cl)ccc(Cl)c1C(=O)Nc1cccc(C)c1C	1.1	0.17
CCOc1ccc(-c2nnc(SCC)c3ccccc23)cc1	0.91	-2
Cc1c(C(=O)NCc2ccc(F)cc2)oc2ccc(S(=O)(=O)N3CCCCCC3)cc12	0.88	-1.2
COc1ccc(-c2csc(NC(=O)c3cccc(Br)c3)n2)cc1	1	0.85
O=C1CN(C(=O)c2cccc(F)c2)C(c2ccccc2)c2cc(Br)ccc2N1 (stereo not drawn)	0.92	-0.79
Cc1nc(NC(=O)c2c(-c3c(Cl)cccc3Cl)noc2C)sc1C(=O)N(C)C	1.1	0.093
C=CCN1C(=O)c2ccccc2Sc2ccc(C(=O)NC(C)c3ccccc3)cc21 (stereo not drawn)	0.99	-0.19
CC(CCc1ccccc1)NC(=O)CC1Oc2ccccc2NC1=O (stereo not drawn)	0.99	-0.49
CCOC(=O)c1cc(-c2ccc(OC)cc2)n(CCC(=O)N2CCc3ccccc32)c1C	0.92	-1.9
O=C(Nc1cccc(-c2nc3ccccc3o2)c1)c1ccc(Cl)cc1Cl	0.84	-2.5
COc1ccc(NC(=O)c2cccc(N3C(=O)C4C5C=CC(C5)C4C3=O)c2)cc1Cl (stereo not drawn)	1.1	0.076
C=CCN(c1ccccc1)C(C(=O)NC1CCCCC1)c1ccc(Cl)cc1 (stereo not drawn)	1	0.12

# Screening data as filed in PubChem BioAssay.
